SARS PLpro yeast – SARS-CoV PLP inhibition in yeast | S. cerevisiae expressing SARS-CoV PLpro, growth rescue; control for the full effect not named in the record | Potency, µM (highest dose often 32.9 µM), for inactives: top-dose activity, positive = growth rescue | 0.19% of 330,000 active; further: 0% is about no effect; nearly all actives have a fitted effect of over 55% in size; growth read by luminescence after 48 h
LASV entry inh – Lassa virus entry inhibition. Lassa virus pseudotype entry inhibition, cell reporter; control for the full effect not named in the record. 1.2% of 300,000 active. Potency, µM (highest dose often 37.9 µM), for the others: top-dose activity change, negative = inhibition, usual class: inhibitors; active means well fitted inhibition curve with a large enough effect; inconclusive means small, poorly fitted or top-dose-only effect, or effect the other way; inactive means flat fitted curve, though single readings scatter; tested in HEK293 cells; further: on the % scale 0 is the no-effect control and ±100 the full control effect; nearly all actives have a fitted effect of over 50% in size; luciferase read-out
RE007 growth inh – less growth of the S. pombe RE007 Vpr strain | S. pombe RE007 Vpr strain, BacTiter-Glo ATP luminescence, 24 h; control for the full effect not named in the record | Potency, µM (series often up to 92.2 µM), without a hit: top-dose activity change, negative = less growth | 0.21% of 360,000 active | AID 651644; active = well fitted falling curve with a large enough effect; inconclusive = small, poorly fitted or top-dose-only effect; inactive = no such curve, though single readings can be large or run the other way;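 further: on the % scale 0 is the no-effect control and ±100 the full control effect; nearly all actives have a fitted effect of over 50% in size; the assay follows cell death caused by Vpr and the record does not say whether a fall means rescue or toxicity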
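Fission yeast strain RE007, carrying one chromosomally integrated HIV-1 vpr copy, was seeded at OD 0.01 in PMG+AL medium with 23 nL pinned compound. After 24 h at 30 °C and 99% humidity, viability was read by BacTiter-Glo luminescence.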
StopGo reporter – FMDV 2A StopGo reporter, luciferase signal | human cells with a luciferase reporter of 2A StopGo recoding; control for the full effect not named in the record | Potency, µM (titrated, usually from 57.9 µM), without a hit: at the top dose signal change, negative = less light | 1.2% of 410,000 active | AID 1159524; active = well fitted falling curve with a large enough effect; inconclusive = small, poorly fitted or top-dose-only effect; inactive = no such curve, though single readings can be large or run the other way; tested in HEK293T cells; further: on the % scale 0 is the no-effect control and ±100 the full control effect; nearly all actives have a fitted effect of over 45% in size; luciferase light after 4 h
MARV entry inh – Marburg virus entry inhibition; Marburg virus pseudotyped entry inhibition, cell reporter; control for the full effect not named in the record; about a third of the inactives were read at about 46 µM; Potency, µM (doses to about 37.8 µM), inactives show top-dose activity change, negative = inhibition, hits mostly inhibitors; 1.8% of 300,000 active; AID 540276; active = well fitted inhibition curve with a large enough effect; inconclusive = small, poorly fitted or top-dose-only effect, or effect the other way; inactive = flat fitted curve, though single readings scatter; tested in HEK293 cells; about a fifth of its hits are not listed in these tables; further: on the % scale 0 is the no-effect control and ±100 the full control effect; luciferase read-out
Cruzain inh noDet – inhibitors of Trypanosoma cruzi cruzain without detergent; P25779; purified cruzain, Z-FR-AMC fluorescence, no detergent; Potency, µM, for inactives: max response, negative = inhibition, actives largely listed as inhibitors; 2.3% of 200,000 active; AID 1476; active means well fitted curve in the direction sought with a large enough effect; inconclusive means small, poorly fitted or top-dose-only effect, or another doubt; inactive means no such curve, though single readings can be large; an effect the other way counts as inactive or inconclusive;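 further: plate controls were enzyme without inhibitor for no effect and buffer without enzyme for full effect; nearly all actives have a fitted effect of over 40% in size; top concentration of the series not given in the record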
Target sequence (P25779 123-467 limits assumed): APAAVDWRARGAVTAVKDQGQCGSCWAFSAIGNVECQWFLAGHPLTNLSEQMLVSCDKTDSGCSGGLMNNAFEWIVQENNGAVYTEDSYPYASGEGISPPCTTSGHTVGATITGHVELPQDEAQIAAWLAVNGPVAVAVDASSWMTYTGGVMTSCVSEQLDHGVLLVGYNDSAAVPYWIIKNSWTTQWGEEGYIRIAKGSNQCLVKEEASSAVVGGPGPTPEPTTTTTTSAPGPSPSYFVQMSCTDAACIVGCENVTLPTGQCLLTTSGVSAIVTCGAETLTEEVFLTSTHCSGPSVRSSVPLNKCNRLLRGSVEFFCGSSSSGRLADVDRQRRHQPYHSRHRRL
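Purified cruzain at 1.5 nM, pre-incubated 15 min with compound at room temperature in 100 mM sodium acetate pH 5.5, 5 mM DTT, 0.00005% Triton X-100. Reaction started with 2 uM Z-FR-AMC; AMC fluorescence increase over 60 s gives rate.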
Cruzain Triton – cruzain (T. cruzi) inhibition with detergent; Potency, µM, for inactives: max response, negative = inhibition, hits mostly inhibitors; 0.43% of 200,000 active; P25779; purified cruzain, Z-FR-AMC fluorescence, 0.01% Triton; active means well fitted curve in the direction sought with a large enough effect; inconclusive means small, poorly fitted or top-dose-only effect, or another doubt; inactive means no such curve, though single readings can be large; an effect the other way counts as inactive or inconclusive;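 further: plate controls were neutral wells for no effect and buffer without enzyme for full effect; nearly all actives have a fitted effect of over 40% in size; top concentration of the series not given in the record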
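Detergent-containing run (0.01% Triton X-100) in acetate buffer pH 5.5 with 5 mM DTT: enzyme at 1.5 nM final, 15 min compound preincubation at room temperature, then 2 uM Z-FR-AMC substrate. Activity taken as 60 s fluorescence increase at 360/450 nm.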
NS1 inh – inhibitors of influenza NS1 protein function; S. cerevisiae slowed by influenza A NS1, growth recovery by OD600; Potency, µM (doses to about 46.1 µM), inactives show top-dose activity, positive = more growth; 0.4% of 270,000 active; further: actives are rising curves; nearly all actives have a fitted effect of over 50% in size
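Recovery from NS1-induced slow growth read by OD600 in budding yeast switched to galactose assay medium (pH 6.0, -URA) at 1:100 dilution. Compound 23 nl per well; the matching strain lacking NS1 serves as control.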
The depositor's hits bear a star; ? = inconclusive; · = not tested or not shown; & = joins results of further samples; [ ] = dose if it differs, or a comment. Unless noted, the call rests on the fitted dose curve; in most records, active means well fitted rising curve with a large enough effect; inconclusive means small, poorly fitted or top-dose-only effect; inactive means no such curve, though single readings can be large or run the other way. Potency means the concentration at half of the fitted maximal effect. No enrichment for hits; overall some 4.5% were active at least once.

SMILES	SARS PLpro yeast	LASV entry inh	RE007 growth inh	StopGo reporter	MARV entry inh	Cruzain inh noDet	Cruzain Triton	NS1 inh
COc1ccc(N2CCN(c3cc(C)c4cccc(C)c4n3)CC2)cc1	-2%	?	-20%	-9%	?	·	·	·
COc1ccc(CNC(=O)C2CCN(c3nnc(C)c4c(C)n(-c5ccc(C)cc5)nc34)CC2)cc1	·	-3%[46.1 µM]	·	-22%	·	-2%	-6.1%	·
Cc1cccn2c(=O)c3cc(S(=O)(=O)c4ccc(F)cc4)c(=N)n(Cc4ccco4)c3nc12	0%	?	-3%	6%	?	·	·	9%
C=CCN(c1ccccc1)S(=O)(=O)c1cc2c(cc1C)N(C)CCO2	-6%	·	1%	13%	·	·	·	19%
OC1CCCN(c2c3c(nc4cc(-c5cccc(Cl)c5)nn24)CCC3)C1 (centres undefined)	-23%	2%	2%	·	?	12%	-13%	-45%
COc1ccc(-n2nnc3c(=O)n(CC(=O)Nc4cc(C)on4)cnc32)cc1	0%	2%	-4%	-4%	?	·	·	-6%
Cc1ccc(NC(=O)CSc2nnc(Cn3c(=O)sc4ccccc43)n2C)cc1	34%	·	13%	?	·	-5%	-3.9%	-13%
Cc1ccc(S(=O)(=O)Nc2cc3c(cc2NCc2ccccc2)n(C)c(=O)n3C)cc1	·	-9%[46.1 µM]	·	24%	-8%[46.1 µM]	27%	-4.8%	·
Cc1cccc(CNC(=O)c2ccc(NC(=O)N3CC(C)Sc4ccccc43)cc2)c1 (centres undefined)	·	-3%[46.1 µM]	·	-18%	2%[46.1 µM]	18%	-3.1%	·
Cc1ccc(C)c(NC(=O)C2CC(O)CN2C(=O)OC(C)(C)C)c1 (centres undefined)	1%	2%	-3%	-16%	5%	1%	3.5%	-9%
CSCc1ccc(C(=O)NCc2ccccc2)cc1	27%	-22%	4%	33%[activator]	?	-10%	-3.9%	-5%
COc1ccc(/C=C(\NC(=O)c2ccccc2)C(=O)N2CCC(C)CC2)cc1	0%	-24%	5%	29%	?	·	·	·
O=[N+]([O-])c1cccc(NC(=S)N2CCCC2)c1	-5%	2%[46.1 µM]	-10%	0%	4%[46.1 µM]	·	·	5%
CN1CCN(Cc2cc(COCc3ccccc3)c3cccnc3c2O)CC1	4%&-30%	?	-22%	-19%	6.3µM*	-1%	0.9%	-100%
O=C(C1CCN(S(=O)(=O)N2CCC3(CC2)OCCO3)CC1)N1CCOCC1	11%	-1%	8%	3%	1%	-20%	3.8%	2%
CC(=O)Nc1ccc(SCC(=O)Nc2ccccc2Oc2ccccc2)cc1	18%	-11%	-2%	0%	-11%	0%	-4.2%	-1%
Cc1ccc(C(=O)COc2ccccc2-c2ccccc2)cc1	-8%	22%	5%	-1%	-6%	-3%	-9.4%	-7%
CN(C)/C=N/c1nc(-c2ccc3ccccc3c2)cs1	-5%	10µM*	?	6%	?	·	·	-39%
CC(C)(C)n1nnnc1C(c1cccc(C#N)c1)N1CCCc2ccccc21 (centres undefined)	-6%	-4%	-3%	-13%	-13%	12%	-4.7%	?
COc1ccccc1C1=NOC(Cn2c(NCCCO)nc3c2c(=O)n(C)c(=O)n3C)C1 (centres undefined)	0%	?	-16%	-25%	0%	·	·	-3%
O=C(CCN1C(=O)/C(=C/c2ccccc2F)SC1=S)NCCCN1CCOCC1	-1%	-13%	-12%	-14%	?	·	·	-2%
COc1ccccc1CNS(=O)(=O)c1cc(Br)cc2c1N(C(C)=O)C(C)C2 (centres undefined)	·	1%[46.1 µM]	·	27%	3%[46.1 µM]	-3%	-1.1%	·
O=C1C2C3C=CC(C3)C2C(=O)N1c1ccc2ccccc2c1 (centres undefined)	5%	·	-6%	-2%	·	·	·	2%
O=C(COc1ccc2c(-c3ccccc3)cc(=O)oc2c1)NCc1ccccn1	1%	·	-7%	-17%	·	·	·	4%
COCCCC1CCN(Cc2nc(-c3ccccc3)no2)CC1	-1%	11%	-6%	26%	?	·	·	-5%

Laid out differently: entries from further up
compound | SARS PLpro yeast | LASV entry inh | RE007 growth inh | StopGo reporter | MARV entry inh | Cruzain inh noDet | Cruzain Triton | NS1 inh
CC(C)(C)n1nnnc1C(c1cccc(C#N)c1)N1CCCc2ccccc21 (centres undefined) | -6% | -4% | -3% | -13% | -13% | 12% | -4.7% | ?
COc1ccccc1C1=NOC(Cn2c(NCCCO)nc3c2c(=O)n(C)c(=O)n3C)C1 (centres undefined) | 0% | ? | -16% | -25% | 0% | · | · | -3%
O=C(CCN1C(=O)/C(=C/c2ccccc2F)SC1=S)NCCCN1CCOCC1 | -1% | -13% | -12% | -14% | ? | · | · | -2%
COc1ccccc1CNS(=O)(=O)c1cc(Br)cc2c1N(C(C)=O)C(C)C2 (centres undefined) | · | 1%[46.1 µM] | · | 27% | 3%[46.1 µM] | -3% | -1.1% | ·
O=C1C2C3C=CC(C3)C2C(=O)N1c1ccc2ccccc2c1 (centres undefined) | 5% | · | -6% | -2% | · | · | · | 2%

The list goes on:
SMILES	SARS PLpro yeast	LASV entry inh	RE007 growth inh	StopGo reporter	MARV entry inh	Cruzain inh noDet	Cruzain Triton	NS1 inh
CN1C(CC(=O)Nc2ccc(Br)cc2)c2ccccc2CC1(C)C (centres undefined)	0%	?	-11%	-28%	11µM*	·	·	-2%
Cc1cccc(NC(=O)c2ccc([N+](=O)[O-])s2)n1	-10%	·	16µM*	24%	·	·	·	-27%
Nc1nccc(SCc2ccc(Cl)cc2Cl)n1	·	?	16%	-16%	-17%	·	·	·
Cc1ccc(-c2nnn(CC(=O)N(CC3CCCO3)C(C(=O)NC3CCCCC3)c3ccc(F)cc3)n2)o1 (centres undefined)	3%	1%	-6%	35%[activator]	-2%	-21%	4.1%	-7%
COc1cccc(S(=O)(=O)NCc2ccc(C(=O)NCc3ccccn3)cc2)c1	1%	12%	-2%	-3%	14%	·	·	-34%
Cc1cc(C(=O)NN=Cc2c(C)[nH]c3ccccc23)c(C)o1	-4%	-1%	-3%	6%	27%	·	·	·
CC(C)c1ccc(OCC(=O)NNC(=S)NC(=O)c2ccco2)c(Br)c1	-1%	·	-3%	-1%	·	·	·	-1%
COc1cc(C(=O)N2CC(=O)Nc3ccc(C)cc3C2c2ccc(F)cc2)cc(OC)c1OC (centres undefined)	·	-10%[46.1 µM]	·	-20%	-30%[46.1 µM]	5%	-1.6%	·
Cc1cc(C)c2c(n1)SCCN2C(=O)Nc1ccc(C(=O)Nc2ccc(C(C)C)cc2)cc1	·	?	·	?	·	-2%	-10%	·
Cc1cccc(CSC2=NCCN2C(=O)c2ccc(S(=O)(=O)N(C)C)cc2)c1	0%	·	-18%	-28%	·	·	·	-24%
CC(=O)N[C@H]1[C@H](OCc2ccccc2F)O[C@H](COC(C)=O)[C@@H](OC(C)=O)[C@@H]1OC(C)=O	-1%	1%	7%	24%	4%[46.1 µM]	·	·	-1%
Cc1cc(C)n(-c2nc(NCCO)c3c4c(sc3n2)CCCC4)n1	-10%	?	-4%	-9%	?	?	-5.8%	-97%
COc1cc(/C=N/n2nnnc2N)ccc1O	-6%	-11%	-14%	1%	10%	-12%	-8.6%	4%
NC(=O)c1ccc(NC(=O)C2CCCC2)cc1	-3%	10%	7%	21%	-11%	·	·	-8%
OC(Cc1ccccc1)(c1ccccc1)C1CN2CCC1CC2 (centres undefined)	-3%	-29%	2%	-24%	?	6%	11%	-4%
CC(=O)N1CCN(CC(=O)c2ccc(Br)cc2)CC1	-23%	11%	?	1%	8%	6%	-1.5%	-63%
CC(=O)Nc1ccc(N(C)S(C)(=O)=O)cc1	1%	2%	12%	10%	-2%	5%	6.4%	-5%
COc1ccc(NC(=O)Nc2c[nH]c(=O)[nH]c2=O)cc1	12%	7%[46.1 µM]	-2%	-16%	3%[46.1 µM]	·	·	-1%
CCc1ccc(CNC(=O)Cc2c(C(=O)O)c(C)cn2C)cc1	·	1%[46.1 µM]	·	-15%	·	-9%	2.1%	·
COc1ccc(C)cc1NC(=O)N1CCN(c2nnc(C)c3c(C)n(-c4ccccc4)nc23)CC1	·	15%[46.1 µM]	·	-20%	·	-4%	-2.0%	·
Cc1cccc(N2CCN(C(=O)Cn3nc(C)n4cccc4c3=O)CC2C)c1 (centres undefined)	6%	26%[46.1 µM]	5%	-21%&-21%	-16%[46.1 µM]	-4%	-6.2%	13%
CCCC(=O)C1=C(N(C)c2ccccc2)CC(C)(C)C(C(=O)OC)C1=O (centres undefined)	1%	5%	-4%	-8%	13%[46.1 µM]	-4%	-1.6%	-9%
O=C1/C(=C/c2ccccc2Cl)SC(=S)N1CCC(=O)N1CCCCC1CCO (centres undefined)	-51%	·	5%	-12%	·	·	·	-10%

Another view of four compounds above:
molecule,SARS PLpro yeast,LASV entry inh,RE007 growth inh,StopGo reporter,MARV entry inh,Cruzain inh noDet,Cruzain Triton,NS1 inh
COc1cc(C(=O)N2CC(=O)Nc3ccc(C)cc3C2c2ccc(F)cc2)cc(OC)c1OC (centres undefined),·,-10%[46.1 µM],·,-20%,-30%[46.1 µM],5%,-1.6%,·
Cc1cc(C)c2c(n1)SCCN2C(=O)Nc1ccc(C(=O)Nc2ccc(C(C)C)cc2)cc1,·,?,·,?,·,-2%,-10%,·
Cc1cccc(CSC2=NCCN2C(=O)c2ccc(S(=O)(=O)N(C)C)cc2)c1,0%,·,-18%,-28%,·,·,·,-24%
CC(=O)N[C@H]1[C@H](OCc2ccccc2F)O[C@H](COC(C)=O)[C@@H](OC(C)=O)[C@@H]1OC(C)=O,-1%,1%,7%,24%,4%[46.1 µM],·,·,-1%

High-throughput results: PubChem BioAssay, National Center for Advancing Translational Sciences (NCATS)
